Bioassay records (PubChem BioAssay)
Lassa entry inh: qHTS for Inhibitors of binding or entry into cells for Lassa Virus; Lassa virus pseudotype entry inhibition, cell reporter; control for the full effect not named in the record; Potency, µM (top dose mostly 37.9 µM), without a hit: at the top dose activity change, negative = inhibition, actives largely listed as inhibitors; 1.2% of 300,000 active; active means well fitted inhibition curve with a large enough effect; inconclusive means small, poorly fitted or top-dose-only effect, or effect the other way; inactive means flat fitted curve, though single readings scatter; tested in HEK293 cells; also: % is scaled to controls: 0 for no effect and ±100 for the full control effect; nearly all actives have a fitted effect of over 50% in size; luciferase read-out
NS1 inh: qHTS Assay for Inhibitors of Influenza NS1 Protein Function. S. cerevisiae slowed by influenza A NS1, growth recovery by OD600. Potency, µM (doses to about 46.1 µM), inactives show at the highest dose activity, positive = more growth. 0.4% of 270,000 active. AID 2326, 2010; also: actives are rising curves; nearly all actives have a fitted effect of over 50% in size
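S. cerevisiae expressing influenza A NS1, grown in glucose, washed, then diluted 1:100 into pH 6.0 -URA galactose medium with 23 nl compound. Growth recovery read as OD600; NS1-free strain serves as control.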
Cruzain Triton: qHTS Assay for Promiscuous and Specific Inhibitors of Cruzain (with detergent); Cruzipain (Trypanosoma cruzi), P25779; purified cruzain, Z-FR-AMC fluorescence, 0.01% Triton; Potency, µM, for the others: max response, negative = inhibition, hits mostly inhibitors; 0.43% of 200,000 active; AID 1478, 2009; active = well fitted curve in the direction sought with a large enough effect; inconclusive = small, poorly fitted or top-dose-only effect, or another doubt; inactive = no such curve, though single readings can be large; an effect the other way counts as inactive or inconclusive;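 also: plate controls were neutral wells for no effect and buffer without enzyme for full effect; nearly all actives have a fitted effect of over 40% in size; top concentration of the series not given in the record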
Target sequence (P25779 123-467 limits assumed): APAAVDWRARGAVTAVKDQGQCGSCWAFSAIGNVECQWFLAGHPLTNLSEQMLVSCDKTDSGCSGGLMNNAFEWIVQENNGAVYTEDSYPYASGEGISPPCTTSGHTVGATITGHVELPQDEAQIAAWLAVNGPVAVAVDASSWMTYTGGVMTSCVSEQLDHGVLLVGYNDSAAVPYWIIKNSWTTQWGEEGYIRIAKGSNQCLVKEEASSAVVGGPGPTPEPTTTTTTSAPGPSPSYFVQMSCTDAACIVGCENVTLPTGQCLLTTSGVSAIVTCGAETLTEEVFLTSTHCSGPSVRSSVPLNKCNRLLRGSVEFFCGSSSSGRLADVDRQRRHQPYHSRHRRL
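Detergent-containing arm of a paired screen for aggregation-based inhibition: 0.01% Triton X-100 present. Cruzain at 1.5 nM cleaved 2 uM Z-FR-AMC at pH 5.5 with 5 mM DTT; AMC fluorescence gain over 60 s measured activity.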
MARV entry inh: qHTS for inhibitors of binding or entry into cells for Marburg Virus | Marburg virus pseudotyped entry inhibition, cell reporter; control for the full effect not named in the record; about a third of the inactives were read at about 46 µM | Potency, µM (highest dose often 37.8 µM), without a hit: at the highest dose activity change, negative = inhibition, usual class: inhibitors | 1.8% of 300,000 active | AID 540276, 2011; active = well fitted inhibition curve with a large enough effect; inconclusive = small, poorly fitted or top-dose-only effect, or effect the other way; inactive = flat fitted curve, though single readings scatter; tested in HEK293 cells; about a fifth of its hits are not listed in these tables; also: % is scaled to controls: 0 for no effect and ±100 for the full control effect; luciferase read-out
SARS PLP yeast: qHTS of Yeast-based Assay for SARS-CoV PLP. 0.19% of 330,000 active. S. cerevisiae expressing SARS-CoV PLpro, growth rescue; control for the full effect not named in the record. Potency, µM (titrated, usually from 32.9 µM), without a hit: top-dose activity, positive = growth rescue; also: 0% is about no effect; nearly all actives have a fitted effect of over 55% in size; growth read by luminescence after 48 h
Cruzain inh noDet: qHTS Assay for Promiscuous and Specific Inhibitors of Cruzain (without detergent) | Cruzipain (Trypanosoma cruzi), P25779 | purified cruzain, Z-FR-AMC fluorescence, no detergent | Potency, µM, for inactives: max response, negative = inhibition, usual class: inhibitors | 2.3% of 200,000 active | AID 1476, 2009; active = well fitted curve in the direction sought with a large enough effect; inconclusive = small, poorly fitted or top-dose-only effect, or another doubt; inactive = no such curve, though single readings can be large; an effect the other way counts as inactive or inconclusive;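 also: plate controls were enzyme without inhibitor for no effect and buffer without enzyme for full effect; nearly all actives have a fitted effect of over 40% in size; top concentration of the series not given in the record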
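Purified cruzain at 1.5 nM, pre-incubated 15 min with compound at room temperature in 100 mM sodium acetate pH 5.5, 5 mM DTT, 0.00005% Triton X-100. Reaction started with 2 uM Z-FR-AMC; AMC fluorescence increase over 60 s gives rate.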
RE007 growth inh: qHTS Assay for Inhibitors of the HIV-1 protein Vpr. S. pombe RE007 Vpr strain, BacTiter-Glo ATP luminescence, 24 h; control for the full effect not named in the record. Potency, µM (top dose mostly 92.2 µM), without a hit: top-dose activity change, negative = less growth. 0.21% of 360,000 active; active = well fitted falling curve with a large enough effect; inconclusive = small, poorly fitted or top-dose-only effect; inactive = no such curve, though single readings can be large or run the other way;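 also: % is scaled to controls: 0 for no effect and ±100 for the full control effect; nearly all actives have a fitted effect of over 50% in size; the assay follows cell death caused by Vpr and the record does not say whether a fall means rescue or toxicity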
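Fission yeast strain RE007, carrying one chromosomally integrated HIV-1 vpr copy, was seeded at OD 0.01 in PMG+AL medium with 23 nL pinned compound. After 24 h at 30 °C and 99% humidity, viability was read by BacTiter-Glo luminescence.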
StopGo reporter: High Throughput Screening for Foot and Mouth Disease Virus Antivirals | human cells with a luciferase reporter of 2A StopGo recoding; control for the full effect not named in the record | Potency, µM (top dose mostly 57.9 µM), for the others: at the highest dose signal change, negative = less light | 1.2% of 410,000 active | AID 1159524, 2015; active = well fitted falling curve with a large enough effect; inconclusive = small, poorly fitted or top-dose-only effect; inactive = no such curve, though single readings can be large or run the other way; tested in HEK293T cells; also: % is scaled to controls: 0 for no effect and ±100 for the full control effect; nearly all actives have a fitted effect of over 45% in size; luciferase light after 4 h
* marks the source's active call; other numbers are inactive results; ? = inconclusive; / = no result given; & = joins results of further samples; [ ] = remark or other dose. Unless noted, calls follow the shape of the dose curve; as a rule, active means well fitted rising curve with a large enough effect; inconclusive means small, poorly fitted or top-dose-only effect; inactive means no such curve, though single readings can be large or run the other way. Potency is read from the fitted curve at half-maximal effect.

smiles,NS1 inh,MARV entry inh,SARS PLP yeast,RE007 growth inh,Cruzain Triton,Lassa entry inh,StopGo reporter,Cruzain inh noDet
Cc1c(NC(=O)COc2c(F)c(F)c(F)c(F)c2F)c(=O)n(-c2ccccc2)n1C,18%,5%[46.1 µM],2%,-12%,/,-15%,-10%,/
Cc1cccc(NC(=O)Nc2cccnc2)c1C,7%,-2%[46.1 µM],1%,-4%,/,8%[46.1 µM],19%,/
Oc1ccccc1N1CCN(c2ncnc3sc(-c4ccccc4)cc23)CC1,7%,/,-3%,-15%,/,/,-29%,/
Cc1ccc(CN2CCN(Cc3nc(C(C)C)cs3)CC2CCO)cc1 (stereo not given),3%,/,0%,4%,/,/,-27%,/
O=[N+]([O-])c1ccc(NC2CCCC2)cc1,-19%,12%,-34%,4%,-8.5%,19%,-2%,-19%
CC12CCC(C(=O)Nc3ccccc3)(C/C1=N\O)C2(C)C (stereo not given),6%,23%,2%,16%,-4.2%,24%,10%,-2%
CCN1CC=C2C(C1)C(c1ccc(Cl)s1)C(C#N)=C(N)C2(C#N)C#N (stereo not given),1%,-27%&-27%,-2%,-1%,25µM*,1%,-7%,25µM*
CC(C)(C)C1CCC(=O)N(CCSc2ccccc2)CC1 (stereo not given),-17%,/,-12%,4%,/,/,26%,/
COc1ccccc1NC(=O)C1=C(C)Nc2nc(SCc3cc(C)ccc3C)nn2C1c1ccccc1 (stereo not given),/,/,/,/,-1.5%,3%[46.1 µM],-24%,4%
NC(=O)C1CCN(CCS(=O)(=O)c2ccc(Cl)cc2)CC1,-1%,/,-2%,-6%,/,/,-26%,/
CC(C)(C)c1ccc(C(=S)N2CCN(c3ccccc3)CC2)cc1,-25%,-9%[46.1 µM],0%,0%,/,-17%[46.1 µM],-24%,/
Cc1cc(NC(=O)COC(=O)COc2ccc3c4c(c(=O)oc3c2)CCC4)no1,-12%,3%[46.1 µM],0%,3%,/,1%,20%,/
CCc1ccc(C(C(=O)NC(C)(C)CC)N(Cc2ccco2)C(=O)Cn2nnc3ccccc32)cc1 (stereo not given),6%,?,-11%,15%,-4.1%,-18%,-19%,13%
CCC(=O)N1CCc2cc(Br)cc(S(=O)(=O)N(C)c3ccc(OC)cc3OC)c21,/,?,-11%,-12%,/,?,-5%,/
CCC(C)c1ccccc1NC(=O)CN(CC)CC(=O)Nc1ccc2c(c1)OCCO2 (stereo not given),/,-7%,0%,18%,/,-20%,-25%,/
COc1ccc(NC(=O)c2sc3nc(C)c(C(=O)Nc4ccc(C)cc4C)c(-c4ccccc4Cl)c3c2N)cc1,/,?,/,/,-3.0%,-1%[46.1 µM],4%,-12%
CC1=NN(C(=O)Cn2nc([N+](=O)[O-])c(Br)c2C)C(O)(C(F)(F)F)C1 (stereo not given),0%,?,-4%,21%,-2.0%,0%,-20%,-8%
Cc1ccc(S(=O)(=O)CCC(=O)OCc2nnc(-c3ccccc3)o2)cc1,/,14%,-1%,-19%,/,11%,14%,/
COc1cccc2c(=O)c3ccccc3oc12,-2%,/,-5%&0%,2%,/,/,61%[activator],/
O=c1[nH]c(CN(CCO)CCO)nc2c1C1(CCCCC1)Cc1ccccc1-2,-17%,-10%&-10%,0%,6%,-5.5%,-15%,-30%,?
CC(=O)c1c(N2CCN(C)CC2)nc(=S)n(-c2cc(C)ccc2C)c1C,/,1%[46.1 µM],0%,-3%,/,-9%,1%,/
CC1=C(C(=O)O)N2C(=O)[C@@H](NC(=O)CCCC(=O)O)[C@H]2SC1,4%,/,1%,2%,/,/,-25%,/
CSc1ccccc1OCc1cc(C(=O)NCCC2CCCCO2)no1 (stereo not given),5%,2%,-2%,-22%,/,4%,12%,/
CCN(CC)C(=O)COc1ccc(/C(C)=N/Nc2ncc(Cl)cc2Cl)cc1,-1%,/,-1%,6%,/,/,-13%,/
COc1ccc2oc(-c3ccc(C)c(NC(=O)COc4cc(C)cc(C)c4)c3)nc2c1,/,-14%[46.1 µM],/,/,1.5%,-2%[46.1 µM],12%,-6%
CCc1cccc(C)c1NC(=O)COC(=O)CC1CCCC1,/,17%,-6%,30%,/,31%,6%,/
COc1ccccc1S(=O)(=O)Nc1cccc(S(=O)(=O)N2CCCC2)c1,/,-5%[46.1 µM],-6%,-2%,/,-2%[46.1 µM],65%[activator],/
Cc1cccc(C)c1NC(=O)COC(=O)c1ccccc1O,-3%,-11%[46.1 µM],1%,27%,/,/,-8%,/
C=CCn1c(SCC(=O)Nc2ncc(Cc3cc(Cl)ccc3Cl)s2)nnc1-c1ccncc1,19%,?,3%,13%,2.0%,6%,-13%,10%
O=C(c1ccncc1)N1CCN(C(=O)c2cccc3ccccc23)CC1,6%,5%,-10%,14%,3.0%,12%,-8%,4%
C=C(C)Cn1c(Sc2nc3ccccc3[nH]2)nc2c1c(=O)[nH]c(=O)n2C,?,-17%,1%,-1%,-1.6%,-21%,-2%,-6%
Cc1ccc(SCCOCCN2CCc3ccccc3C2)cc1,-22%,?,-36%,-1%,1.9%,-7%,-17%,8%
Cc1cccc(OCc2occc2C(=O)Nc2cccc(-n3cnnn3)c2)c1,3%,/,0%,-10%,/,/,?,/
CCC(=O)Nc1ccc(NC(=O)CN2CCCC(C)C2)c(Cl)c1 (stereo not given),4%,7%,4%,-5%,2.8%,5%,16%,-11%
CC(C)(C)NC(=O)C(c1ccccc1)N(C(=O)CNC(=O)c1cccs1)c1cccnc1 (stereo not given),-7%,-4%[46.1 µM],-1%,-8%,/,13%[46.1 µM],16%,/
CCc1cccc2c(C(=O)CCl)c[nH]c12,-17%,?,13µM*,22%,-18%,-22%[46.1 µM],28µM*,?
Cc1sc2nc(CC(=O)N3CCCC3)[nH]c(=O)c2c1C,5%,/,1%,5%,/,/,11%,/
O=C(Nc1ccc2nc(SCC(=O)N3CCOCC3)sc2c1)c1cccc(Cl)c1,/,3%[46.1 µM],/,/,-7.7%,-32%[46.1 µM],?,?
CC(NC(=O)COC(=O)c1cc2ccccc2cc1O)c1ccccc1 (stereo not given),/,-9%,0%,2%,/,-9%,-22%,/
CN(C)c1ccc(/C=C/c2cc[n+](C)cc2)cc1,-13%,?,-10%,?,-13%,?,-25%,-5%
C=CCn1c(SCC(=O)N(C(C)CC)C2CCS(=O)(=O)C2)nc2ccccc2c1=O (stereo not given),/,-1%,-2%,4%,/,8%,-17%,/
O=CNc1cc2c(cc1Br)-c1ccccc1C2O (stereo not given),/,-3%,/,0%,/,?,-2%,/
CCCCOc1cccc(NC(=O)CSc2nccn2C)c1,-2%,8%,-1%,6%,6.5%,-1%,38%[activator],3%
COc1cccc(-n2c(CNC(=O)OC(C)(C)C)n[nH]c2=S)c1,-1%,25%,4%,-10%,2.9%,0%,-1%,-15%
Cc1ccc(C(=O)NCCN2CCCC2)cc1,5%,3%,18%,-5%,2.1%,4%,-19%,-7%
COc1ccc(C(=O)c2sc(Nc3ccccc3)nc2N)cc1,19%,/,-6%,3%,-11%,?,51%&3%[activator],-19%
CC1(C)C(c2ccccc2)=NC(c2ccccc2)N1O (stereo not given),4%,5%,-3%,2%,-1.1%,0%,11%,1%
O=C(OCc1cc2ccccc2[nH]c1=O)C1CCCO1 (stereo not given),0%,5%,-5%,15%,4.1%,7%,11%,-12%
O=C(OCCOCCN=C1NS(=O)(=O)c2ccccc21)c1ccccc1,11%,4%[46.1 µM],-2%,-1%,/,18%[46.1 µM],14%,/
O=C(NCc1ccncc1)C(=O)Nc1nc2ccccc2s1,-4%,26%,1%,1%,/,2%,58%[activator],/
COc1ccc(CN2CCNC(=O)C2CC(=O)NCCc2nc(C)c(C)s2)cc1C (stereo not given),9%,/,4%,1%,/,/,-7%,/
COC(=O)C1C2C=CC3(CN(CCc4ccccc4)C(=O)C13)O2 (stereo not given),-1%,0%,7%,3%,4.0%,2%,25%,17%
COc1ccccc1N1CCN(C(CNC(=O)C(=O)NCc2ccc(C)cc2)c2cccnc2)CC1 (stereo not given),/,/,/,/,-1.0%,0%[46.1 µM],?,1%
O=C(Nc1ccc2ccccc2c1)N1CCN(c2ncccc2C(F)(F)F)CC1,-36%,?,-6%,-1%,-7.4%,-19%,-21%,-3%
CCCS(=O)(=O)c1ncc(Cl)c(C(=O)N(Cc2ccccc2)Cc2ccco2)n1,/,?,/,/,-7.1%,?,16µM*,2%
O=C(COC(=O)C1=COCCO1)Nc1cc(S(=O)(=O)N2CCCCC2)ccc1Cl,/,-38%[46.1 µM],0%,6%,/,3%,-17%,/
O=c1c2c(-c3cccs3)csc2ncn1/N=C/c1ccccn1,/,-5%[46.1 µM],/,9%,/,6%,-21%,/
CCN(Cc1ccccc1)C(=O)COC(=O)[C@@H]1CCCN1C(=O)c1cccs1,/,7%[46.1 µM],-17%,-2%,/,-17%[46.1 µM],-13%,/
Cc1ccc(CNC(=O)C(=O)NCC2CCCO2)cc1 (stereo not given),5%,-24%,4%,2%,1.8%,0%,6%,-7%
Brc1cccc(/C=N/Nc2nn[nH]n2)c1,5%,/,0%,8%,/,/,-2%,/
O=C(c1ccc(F)cc1)n1c(NCc2ccccc2)n[nH]c1=S,-1%,13%[46.1 µM],0%,1%,/,16%,-7%,/
CCOc1ccccc1/C=N/n1c(C)nc2ccccc2c1=O,-2%,/,0%,5%,/,/,?,/
O=C(NC(=S)Nc1ccccc1OC(F)F)c1ccc2c(c1)OCO2,/,?,1%,13%,/,1%,24%,/
